# Bioassay records: PubChem BioAssay, several laboratories
# CSC inhib: cancer stem cell viability inhibitors, primary screen, luminescence; inhibition, % at 7.5 µM; cancer stem cell-like cells viability; AID 2717, 2010; hit rate 1.1% among 300,000;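 active = mean at 75% or more and at least half the replicates too; inconclusive = mean and replicates disagree; tested in HMLE shEcad cells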;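 also: 0% = median of negative and 100% = median of positive control wells; the first replicate is given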
# MT1-MMP act inh: blockers of MT1-MMP proenzyme processing, primary screen, HT1080 RFP-PRO-GFP cells, GFP/RFP fluorescence; Matrix metalloproteinase-14 (Homo sapiens), P50281; GFP/RFP ratio fluorescence, overnight; percent of plate control window, DMSO zero; GFP/RFP ratio change, % at 20 µM; hit rate 0.061% among 360,000;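 active = GFP/RFP ratio change of at least 30% with cell ATP level not reduced by more than half and red fluorescence within 50% of control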; also: strong numbers were not always called active
#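 Assay system: HT1080 cells carrying an RFP-PRO-GFP reporter | Dosing: Single dose of 20 µM compound, 1% DMSO final | Incubation: Cells overnight before dosing, compound overnight, 37 °C, 5% CO2 | Evaluation: GFP/RFP fluorescence ratio | Control set: DMSO and RFP-L50D-GFP cell wells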
# Yeast UUG start: modulators of yeast start codon fidelity, primary screen, whole organism, S. cerevisiae, single point, plate reader | S. cerevisiae UUG-firefly luciferase reporter, luminescence/redox ratio | hit rate 0.13% among 350,000 | activity score, % at 18.7 µM;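 active = replicate mean at a twofold rise or more, about +100% in these data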;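 also: firefly luciferase made from a UUG start codon reports start codon fidelity; reporter light over untreated wells divided by growth signal over untreated wells; some hits fall short of that in this replicate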
# PABP FP inh: PABP poly(A) RNA binding inhibitors, primary screen, biochemical, fluorescence polarization, uHTS; inhibition, % at 35 µM; Polyadenylate-binding protein 1 (Homo sapiens), P11940; hit rate 1% among 290,000;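 active = 50% or more with normal probe brightness, or confirmed in later tests; inconclusive = above 50% with abnormal brightness, or retests that disagree; inactive = below 50% or failed in later tests; about a fifth of its hits are not listed in these tables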;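 also: calls also rest on retests at 20 µM and on dose response follow-up; controls were probe without protein and protein plus probe with vehicle; some compounds called inactive have numbers as strong as hits; many hits fall short of the cut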
# eIF4H inh: human eIF4H binding inhibitors, primary screen, translation initiation inhibitor project, biochemical, uHTS, fluorescence polarization. Eukaryotic translation initiation factor 4H (Homo sapiens), Q15056. eIF4H fluorescence polarization binding assay. inhibition, % at 35 µM. hit rate 0.94% among 290,000. AID 2012, 2009;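 active = 50% or more with normal probe brightness, or confirmed in later tests; inconclusive = above 50% with abnormal brightness, or retests that disagree; inactive = below 50% or failed in later tests; about a fifth of its hits are not listed in these tables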;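 also: calls also rest on retests at 20 µM and on dose response follow-up; 0% = protein and probe with vehicle and 100% = probe without protein; strong numbers were not always called active; many hits fall short of the cut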
# Env fusion inh: inhibitors of HIV-1 Env-driven cell-cell fusion, primary screen, HeLa-JRFL effector, CEM21 target cells, luciferase. inhibition, % at 12.3 µM. hit rate 1.1% among 360,000. AID 651610, 2012;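 active = mean replicate inhibition score of at least 50 and every replicate individually at or above 50; inconclusive = only one of the two criteria met; inactive = mean below 50 and not all replicates reaching 50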;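 also: 0% = plate neutral controls and 100% = maraviroc near 300 nM; one replicate is shown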
# Rce1 inhib: yeast Rce1p protease inhibitors, primary screen, biochemical, fluorescence, cell-free homogeneous. calls only. CAAX prenyl protease 2 (Saccharomyces cerevisiae (strain ATCC 204508 / S288c)), Q03530. yeast membranes, quenched prenylated peptide cleavage fluorescence. hit rate 0.27% among 290,000;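 active = fall in fluorescence gain of 50% or more versus controls, with final raw signal at or below 3038400; inconclusive = same 50% fall but final raw signal above 3038400; inactive = fall in fluorescence gain under 50%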;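 also: plate controls were neutral control wells for no effect and wells lacking membranes for full effect; tested at 10 µM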
# Target sequence (Q03530 whole entry, looked up): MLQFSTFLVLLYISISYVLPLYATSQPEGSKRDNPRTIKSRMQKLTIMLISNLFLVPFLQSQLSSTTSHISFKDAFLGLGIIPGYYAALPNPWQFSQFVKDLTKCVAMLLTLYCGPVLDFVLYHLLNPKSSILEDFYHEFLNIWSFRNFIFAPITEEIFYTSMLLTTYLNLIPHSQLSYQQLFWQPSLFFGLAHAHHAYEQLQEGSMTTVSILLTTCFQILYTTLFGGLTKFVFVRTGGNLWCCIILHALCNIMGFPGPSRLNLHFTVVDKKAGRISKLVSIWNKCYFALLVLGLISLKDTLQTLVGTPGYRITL
# PABP FP inh retest: recorded beside PABP FP inh, whose call it bears; inhibition, %; compound at 20 µM; confirmation repeats;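 mean of two retest wells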
# MT1-MMP act inh RFP: also measured in MT1-MMP act inh; calls as there; RFP signal change, %; measured here: RFP expression control read;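 0 = vehicle wells; hits needed this value within 50% of zero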
# * = called active by the depositor; i = inactive; ? = inconclusive; nt = not tested or not shown; & = joins results of further samples; [ ] = dose if it differs, or a comment.
SMILES,CSC inhib,MT1-MMP act inh,MT1-MMP act inh RFP,Yeast UUG start,PABP FP inh,eIF4H inh,Env fusion inh,Rce1 inhib,others
Cc1nc2sc(C(c3ccccc3)N3CCN(C(=O)c4ccco4)CC3)c(O)n2n1 (stereo unspecified),nt,-1.6,2.6,-1.8,1.1,-4.1,nt,i,
O=C(COC(=O)CNC(=O)c1cccc([N+](=O)[O-])c1)Nc1cccc(S(=O)(=O)N2CCCCC2)c1,-23.7,1.4,1.8,nt,-2.7,-11.1,-7.5,i,
CCN(CC)S(=O)(=O)c1ccc(OC)c(NC(=O)CSc2cc(C)ccc2C)c1,-14.7,1.6,2.5,nt,13.6,-1.1,11.0,i,
C#CCNC(=O)C1=C[C@H](c2ccccc2)[C@@H](CCCO)[C@H](OCC)O1,-1.5,2.8,1.6,-15.6&-9.2,6.5,17.4,0.4[16.7 µM],i,
CC(C)(C)c1ccc(OCC(=O)NNC(=S)NC(=O)c2ccccc2[N+](=O)[O-])c(Br)c1,27.4,5.4,1.7,nt,-7.0,6.9,-30.9,i,
CC(=O)c1ccc(OCCCC(=O)N2CCN(S(=O)(=O)c3ccc(C)cc3C)CC2)cc1,-3.3,5.9,-5.9,-16.8,nt,nt,17.5,i,
O=C(/C=C/[C@H]1O[C@@H](n2cnc3c(NC(=O)c4ccccc4)ncnc32)[C@H](O)[C@@H]1O)NCc1cccc2ccccc12,nt,-1.8,1.6,1.2,nt,nt,6.2,nt,
O=C(COc1ccc(Cl)cc1Cl)N/N=C1\CCCc2ccccc21,8.4,3.0,0.1,-23.9,-0.5,5.2,-51.6,i,
CCCC(=O)Nc1ccccc1NC(=O)CCC,20.6,-0.7,0.9,-10.1,-2.5,-2.7,17.9,i,
Cc1ccc(S(=O)(=O)N(CC(=O)N(C)C)c2cccc([N+](=O)[O-])c2)cc1,-12.1,-1.8,3.8,-16.6,-1.6,1.2,5.5,i,
COC(=O)c1ccc(CSc2nc3ccccc3c(=O)n2CC(C)C)o1,20.3,-3.3,-9.0,nt,4.5,-0.7,nt,i,
CCOc1ccc(Br)cc1S(=O)(=O)N1CCCC1,-4.6,-3.8,-1.5,-16.0,-4.9,-5.9,nt,i,
CCCN1CN(CCc2ccccc2)CNC1=S,4.6,3.7,-1.4,nt,-2.0,19.5,8.7,i,
COc1ccccc1C(=O)Nc1cc2cc(Cl)ccc2oc1=O,-15.3,-0.1,0.8,-17.4,-1.5,-4.1,0.0,i,
COc1ccc(C(C)(O)c2nc(-c3ccc(C)c(C)c3)cs2)cc1 (stereo unspecified),nt,4.5,-3.9,-7.1,nt,nt,-20.6,nt,
COC(=O)c1ccc(/C=C2\CCn3c2nc2cc(C(=O)O)ccc2c3=O)cc1,-4.1,4.2,4.3,nt,24.5,-2.7,nt,i,
CC1CCN(C(=O)C2CCN(S(=O)(=O)c3cccc4cccnc34)CC2)CC1,4.3,-0.9,2.0,3.9,nt,nt,1.2,i,
CN(C)S(=O)(=O)N(CC(=O)N1CCC(Cc2ccccc2)CC1)c1ccccc1,-4.9,6.6,-4.9,-3.4,13.2,-6.1,16.7,i,
O=C(Cc1c(Cl)cccc1Cl)NCCc1ccc(Cl)cc1,-18.6,6.3,3.9,-14.5,-6.4,-6.1,nt,i,
CC1(C)CC(=O)/C(=C(/O)CCCN2C(=O)c3ccccc3C2=O)C(=NC(C)(C)C)C1,9.3,0.0,-1.1,-7.7,-8.4,4.4,1.5,i,
CCn1nnc2cc(C(=O)Nc3cc(S(C)(=O)=O)ccc3Cl)ccc21,-7.6,0.7,5.1,-4.9,-3.7,-2.8,-2.3,i,
COc1cc(CNc2ncc(-c3ccc(Br)cc3)n2C)cc(OC)c1OC,-3.5,5.3,0.1,4.1,2.3,5.8,3.9,i,
CCOC(=O)C1=C(C)N(CCCC(=O)O)C(=O)NC1c1ccccc1OS(=O)(=O)c1ccccc1[N+](=O)[O-] (stereo unspecified),-9.6,-2.0,-1.0,-22.2,nt,nt,8.4,i,
CC1(C)CC(=O)C2=C(C1)N(CCN1CCOCC1)C1=C(C(=O)CC(C)(C)C1)C2c1ccc(Cl)c([N+](=O)[O-])c1,0.9,-5.2,-5.6,nt,7.3,0.5,4.9,i,
COc1ccc(NC2=C(C)C(=O)CC2)cc1,5.8,11.2,14.7,12.2,7.4,-2.4,nt,i,
Cc1nc(NC(=O)C2CC3CCCC(C2)C3=O)sc1C (stereo unspecified),2.6,1.4,0.5,-9.7,-10.9,-7.7,nt,i,
S=C(Nc1ccc(CN2CCCCC2)cc1)Nc1cccc(Cl)c1Cl,-12.1,-0.3,2.2,-18.2,-0.6,-7.2,1.6,i,
Cc1ccn2c(Nc3ccccc3C)c(-c3cccnc3)nc2c1,-12.5,8.3,3.8,nt,3.8,-1.8,8.7,i,
O=C1C2C3C=CC(CC3)C2C(=O)N1c1ccc(F)cc1 (stereo unspecified),4.4,-0.9,-1.9,-12.9,-4.8,4.1,2.9,i,
CCCc1nn2c(=O)cc(O)nc2s1,10.4,3.2,1.1,-4.8,-4.0,-2.1,-15.5,i,
O=C(CCc1nc2ccccc2c(=O)[nH]1)NNC(=O)COc1ccccc1Cl,-17.3,4.6,-0.1,-17.0,nt,nt,-42.9,i,
Cc1ccc(C(C)C)c(OCCN2CCc3ccccc3C2)c1,9.0,-4.3,-4.1,-19.7,7.0,1.1,-2.3,i,
Nn1c(SCc2ccc(F)cc2)nnc1-c1cccnc1,-1.4,1.3,4.4,-16.2,-11.4,5.0,5.5,i,
Cc1cc(O)c(C(=O)Nc2cccc(Cl)c2)c(=O)n1C,-4.9,-2.8,2.1,-17.0,1.9,-12.2,-54.2,i,
CN(CC(=O)NC1CCN(Cc2ccccc2)CC1)S(=O)(=O)c1ccc(Cl)cc1,3.7,1.0,-6.1,-15.4,nt,nt,36.8,nt,
Oc1ccccc1/C=N/n1c(COc2ccccc2)n[nH]c1=S,-2.2,1.6,4.1,-22.4,2.0,-0.5,3.8,i,
CCN(CC)CCN1C(=O)c2oc3ccccc3c(=O)c2C1c1ccccc1 (stereo unspecified),-17.4,-0.9,0.1,-11.1,-0.2,-5.1,nt,i,
Cc1ccc(NC(=O)c2ccc(Cn3cc(Br)cn3)o2)cc1,-0.7,1.2,-2.9,-3.5,-5.7,11.4,-1.1,i,
O=C(NCCN1CCOCC1)c1c(F)c(F)c(F)c(F)c1F,nt,0.8,1.1,-13.7,6.5,5.4,18.1,i,
COCCN(C(=O)CSc1nnc(C)n1-c1ccccc1)c1c(N)n(Cc2ccccc2)c(=O)[nH]c1=O,-16.1,2.7,6.8,-10.8,36.0,-9.1,8.4,i,
CCOCC(O)CNC(=O)c1ccc(OC2CCN(C(=O)c3cccnc3)CC2)cc1 (stereo unspecified),0.3,-3.8,0.7,-9.9,5.4,-9.7,-8.1,i,
COc1ccc(OCCC(=O)OCC(=O)NCc2ccc(F)cc2)cc1,-3.2,2.1,4.6,nt,14.0,-1.9,-4.3,i,
CC(=O)Nc1cccc(NC(=O)C2CC3CCC2C3)c1 (stereo unspecified),-2.6,8.9,4.4,18.1,18.0,17.0,-22.1,i,
COC(=O)c1ccc(OC)c(CN2CCCN(Cc3cc(C)ccc3C)S2(=O)=O)c1,18.1,-1.2,-8.5,-10.7,7.6,10.9,17.0,i,
CCN(CC(=O)Nc1cc(S(=O)(=O)N2CCOCC2)ccc1C)Cc1ccccc1,-1.6,2.2,-4.2,-7.9,nt,nt,17.6,i,
O=C(CC1C(=O)NCCN1Cc1ccccc1)NCCC1=CCCCC1 (stereo unspecified),-8.8,-1.6,1.4,-1.2,1.2,12.8,8.6,i,
Cc1cc(NC(=O)c2ccc(NC(=O)C3CC3)cc2)no1,nt,-4.6,-1.1,nt,-6.2,0.6,2.4,i,
O=C(Nc1sc2c(c1C(=O)NCCO)CCCC2)c1ccco1,-1.4,2.7,0.1,-9.8,2.0,3.2,7.4,i,
CC(=O)Nc1nc(C)c(-c2csc(Nc3ccc(S(N)(=O)=O)cc3)n2)s1,27.8,-2.4,3.2,-13.8,-2.2,3.9,3.1,i,
O=C(COc1ccccc1[N+](=O)[O-])N/N=C/c1cccc(OC(=O)c2ccc3c(c2)OCO3)c1,-12.6,-5.7,-1.2,nt,14.1,-11.4,-17.8,i,
# (next part)
SMILES,CSC inhib,MT1-MMP act inh,MT1-MMP act inh RFP,Yeast UUG start,PABP FP inh,eIF4H inh,Env fusion inh,Rce1 inhib,others
CCOc1ccc(-n2c(C)c(C(C)=O)c(C(C)=O)c2C)cc1,-0.8,4.9,-0.9,-5.6,-1.9,-3.1,nt,i,
CCN(CC)S(=O)(=O)c1ccc(O)c(C(=O)OCC(=O)NC23CC4CC(CC(C4)C2)C3)c1,-1.1,-0.9,-1.5,-22.6,nt,nt,-26.9,nt,
CCCCn1c(N)c(N(CC(C)C)C(=O)C2CCCO2)c(=O)[nH]c1=O (stereo unspecified),-15.6,1.5,1.5,nt,nt,nt,-3.4,i,
O=C(NC1=NCCS1)c1cc2ccccc2o1,15.8,1.5,0.2,-63.8,-12.8,-5.7,-37.0,i,
CCOc1ccc(S(=O)(=O)N2CCCC(C(=O)N3CCN(CC)CC3)C2)cc1Cl (stereo unspecified),30.8,3.3,-4.9,-14.2,0.9,-8.2,27.2,i,
C=C(C)CCOC(=O)C(CC(=O)O)NCc1ccco1 (stereo unspecified),-13.3,-2.4,2.5,-12.7,24.4*,?,-11.3,i,PABP FP inh retest=102.8*
CCOC(=O)CC(NC(=O)c1ccc(C)cc1)c1ccc(OC)cc1 (stereo unspecified),9.5,4.1,2.6,-20.4,5.4,-10.5,-4.9,i,
O=C(O)CCCCCN1C(=O)CCC1=O,-9.7,-1.6,7.0,2.3,3.1,-0.6,nt,i,
Cc1ccc(-c2nn3c(C)nnc3s2)cc1N,26.1,7.2,3.7,-11.5,-5.7,-4.8,-69.7,i,
N#C/C(N)=C(/C#N)N=Cc1cccc(Cl)c1,2.6,2.2,-2.8,nt,-6.6,-4.3,-17.9,i,
COc1ccc(Nc2nc(-c3ccncc3)nc3ccccc23)cc1,27.4,-10.9,-15.0,-6.1,9.6,9.8,29.9,i,
COc1ccc(-c2cc(C(F)(F)F)n3nc(C(=O)Nc4c(C)n(C)n(-c5ccccc5)c4=O)c(Cl)c3n2)cc1,5.6,2.3,0.3,-28.0,-3.9,-7.7,5.5,i,
CC1(C)CC(=O)C2=C(C1)OC(N)=C([N+](=O)[O-])C2c1ccc(F)cc1 (stereo unspecified),0.5,1.0,0.0,0.4,-1.0,0.7,4.2,nt,

# Structures listed so far that have a tert-butyl group:
SMILES,CSC inhib,MT1-MMP act inh,MT1-MMP act inh RFP,Yeast UUG start,PABP FP inh,eIF4H inh,Env fusion inh,Rce1 inhib,others
CC(C)(C)c1ccc(OCC(=O)NNC(=S)NC(=O)c2ccccc2[N+](=O)[O-])c(Br)c1,27.4,5.4,1.7,nt,-7.0,6.9,-30.9,i,
CC1(C)CC(=O)/C(=C(/O)CCCN2C(=O)c3ccccc3C2=O)C(=NC(C)(C)C)C1,9.3,0.0,-1.1,-7.7,-8.4,4.4,1.5,i,

# Compounds were not picked by outcome; any-hit rate near 2.9%.
